Compound activity deposited in PubChem BioAssay by Broad Institute.
Ecoli rRNA inh = inhibitors of bacterial rRNA selective over humanized ribosomes | E. coli WT GFP vs humanized-ribosome RFP mutants, fluorescence, 24 h; hits give low values; DMSO median 0, no signal -100 | GFP signal change (wild-type ribosome), % (test concentration not listed) | 350,000 compounds, 1.6% hits;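 active means significant combined selectivity score with lowered wild-type GFP, culture density cut under 30%, mutant RFP and density less affected; inactive means any of these conditions unmet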; further: one replicate is shown; some compounds called inactive have numbers as strong as hits
Ecoli rRNA inh OD600 = further read-out of Ecoli rRNA inh, marked with its call; OD600 change, %; measured here: OD600 growth;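 optical density of the mix in the first replicate; 0 = DMSO median and -100 = no signal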
Ecoli rRNA inh RFP = second read-out of Ecoli rRNA inh, no call of its own (marks repeat the call); RFP signal change, %; measured here: RFP humanized mutant strains;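 first replicate; 0 = DMSO median and -100 = no signal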
The depositor's hits bear a star; & = joins results of further samples.

SMILES	Ecoli rRNA inh	Ecoli rRNA inh OD600	Ecoli rRNA inh RFP
O=C(N[C@H]1CC[C@@H](CCn2cc(-c3ccccc3)nn2)O[C@H]1CO)c1ccccc1F	-3	2	-0.7
COC(=O)C[C@@H]1C[C@@H]2c3cc(NS(=O)(=O)c4ccccc4)ccc3O[C@@H]2[C@@H](CO)O1	4&-1	5&2	-2.1&-0.6
O=C(NCC[C@H]1CC[C@H](NC(=O)C2CC2)[C@H](CO)O1)Nc1ccc(Cl)cc1	-9	-8	2.3
COc1ccc([C@H]2C[C@H](O)[C@@H](n3cc(C4CC4)nn3)CN2CC2CCCCC2)cc1	2	-7	-6.0
COC(=O)[C@]12CCCCC=C1N(CCC1=CCCCC1)C(=O)[C@H](CC(=O)N1CCCCC1)C2	-29	-53	-1.2
CC(C)CC#Cc1ccc2c(c1)O[C@H](CN(C)C(=O)Cc1ccccn1)[C@H](C)CN([C@@H](C)CO)S2(=O)=O	1	-3	3.7
COCC#Cc1ccc([C@@H]2[C@H](CO)N3C(=O)CN(C(=O)CN4CCOCC4)C[C@@H]23)cc1	1	-6	-1.6
N#C[C@H]1[C@H](c2ccc(C#Cc3ccc(F)cc3)cc2)[C@H](CO)N1C(=O)Cc1ccncc1	-8	-42	3.0
COc1ccc(S(=O)(=O)N(C)C[C@H]2Oc3ccc(NC(=O)CCCN(C)C)cc3C(=O)N([C@H](C)CO)C[C@@H]2C)cc1	3	8	-1.2
CCCNC(=O)Nc1ccc2c(c1)OC[C@H](C)N(Cc1ccccc1)C[C@H](C)[C@@H](OC)CN(C)C2=O	-5	-16	3.6
COCCNC(=O)[C@@H]1[C@@H](CO)[C@@H]2Cn3c(ccc(-c4ccccc4OC)c3=O)[C@@H]2N1C(=O)C1CCC1	1	2	0.3
COc1cccc(NC(=O)N(C)C[C@H]2OCc3ccccc3-c3c(n(C)c4ccccc34)C(=O)N([C@H](C)CO)C[C@@H]2C)c1	2	4	-3.7
COc1ccc(C[C@@H]2CCn3cc(nn3)COC[C@@H](CC(C)C)NC2=O)cc1	2	0	-1.7
COc1ccccc1N(CC(=O)NCCSCc1ccccc1)S(=O)(=O)c1ccccc1	-15*	-22*	6.7*
CCCS(=O)(=O)NC(=O)C1(C)CCCN(C(=O)c2cccs2)C1 (stereo unspecified)	18	4	-5.0
Cc1cccc(Cl)c1NC(=O)NCCCN1CCCCC1C (stereo unspecified)	6	11	2.5
C[C@@H]1CN([C@H](C)CO)C(=O)Cc2cc(NC(=O)NC3CCCCC3)ccc2O[C@H]1CN(C)Cc1ccncc1	-3	-8	-0.9
COc1ccc(-c2cc(CNc3nc(NCc4ccccc4OC)nc4ccsc34)on2)cc1	9	-7	-5.5
CC(C)NC(=O)N(C)C[C@H]1Oc2c(cccc2N(C)C)C(=O)N(C)C[C@H]1C	4	5	-1.6
O=C(NCc1cccs1)c1ccc2sc([C@@H]3O[C@H](CO)[C@H](O)[C@H](O)[C@H]3O)nc2c1	15	19	-1.7
CCN1[C@H](C(=O)OC)[C@@H](CO)[C@@H]2Cn3c(ccc(-c4cccc(F)c4)c3=O)[C@@H]21	-1	-10	-1.0
C[C@@H]1CN([C@@H](C)CO)C(=O)c2cccc(NC(=O)c3nc4ccccc4s3)c2O[C@@H]1CN(C)Cc1ccc2c(c1)OCO2	-3	-7	4.0
C[C@@H]1CCc2cnnn2COC[C@H](Cc2ccccc2)NC1=O	2	-4	-0.5
O=C(NCC1CC1)c1ccc2nc([C@@H]3O[C@H](CO)[C@H](O)[C@H](O)[C@H]3O)[nH]c2c1	11	22	0.9

Filtered by structure: those above with a thiophene ring, fused or not (three)
SMILES	Ecoli rRNA inh	Ecoli rRNA inh OD600	Ecoli rRNA inh RFP
CCCS(=O)(=O)NC(=O)C1(C)CCCN(C(=O)c2cccs2)C1 (stereo unspecified)	18	4	-5.0
COc1ccc(-c2cc(CNc3nc(NCc4ccccc4OC)nc4ccsc34)on2)cc1	9	-7	-5.5
O=C(NCc1cccs1)c1ccc2sc([C@@H]3O[C@H](CO)[C@H](O)[C@H](O)[C@H]3O)nc2c1	15	19	-1.7

(further entries)
SMILES	Ecoli rRNA inh	Ecoli rRNA inh OD600	Ecoli rRNA inh RFP
COc1ccccc1Cc1c(-c2ccc(C#N)cc2)nc2ccc(Br)cn12	0	1	2.7
Cc1noc(C)c1NC(=O)N(C)C[C@H]1Oc2c(NC(=O)C3CCOCC3)cccc2C(=O)N([C@H](C)CO)C[C@H]1C	2	-4	-2.8
C[C@H](CO)N1C[C@H](C)[C@@H](CN(C)C(=O)Nc2ccccc2C(F)(F)F)OCc2cnnn2CCCC1=O	2	-1	-1.0
COc1ccc(C(=O)N(C)[C@H]2C[C@H]3c4[nH]c5ccccc5c4CCN3C[C@H]2[C@H](C)O)cc1	7	21	1.8
CCCCn1nnnc1C(c1cc2ccccc2o1)N1CCN(CC(=O)NC(C)C)CC1 (stereo unspecified)	-4	-4	-8.0
CCCC(=O)Nc1ccc2c(c1)C(=O)N(C)[C@@H]1CC[C@@H](CC(=O)NCc3cccc(F)c3)O[C@H]1CO2	-1	-1	-2.3
C[C@@H]1CN([C@@H](C)CO)C(=O)c2cc(C#CCN(C)C)cnc2O[C@H]1CN(C)Cc1ccc(F)cc1	0	13	-3.1
C[C@H](CO)N1C[C@H](C)[C@H](CN(C)Cc2ccc(C(=O)O)cc2)OCCCC[C@H](C)Oc2ccc(NC(=O)Cc3ccccc3)cc2C1=O	-4	-9	0.1
Cc1noc(C)c1C(=O)N(C)C[C@@H]1OCc2ccccc2-c2ccccc2C(=O)N([C@H](C)CO)C[C@@H]1C	-1	5	-1.0
Cc1noc(C)c1NC(=O)NCC[C@@H]1CC[C@@H](NC(=O)c2ccc(F)cc2)[C@H](CO)O1	-1	7	-1.2
COc1cccc(-c2cnc3c(c2)C(=O)N([C@H](C)CO)C[C@H](C)[C@H](CN(C)S(=O)(=O)c2cccc(F)c2)O3)c1	-1	5	2.2
C[C@H]1CN([C@@H](C)CO)C(=O)c2cc(NC(=O)CCN3CCOCC3)ccc2O[C@@H]1CN(C)S(=O)(=O)c1ccc(Cl)cc1	0	-2	-1.5

Compound profiles, from the list above:
Cc1noc(C)c1C(=O)N(C)C[C@@H]1OCc2ccccc2-c2ccccc2C(=O)N([C@H](C)CO)C[C@@H]1C is listed as Ecoli rRNA inh: -1; Ecoli rRNA inh OD600: 5; Ecoli rRNA inh RFP: -1.0
Cc1noc(C)c1NC(=O)NCC[C@@H]1CC[C@@H](NC(=O)c2ccc(F)cc2)[C@H](CO)O1 is listed as Ecoli rRNA inh: -1; Ecoli rRNA inh OD600: 7; Ecoli rRNA inh RFP: -1.2

Later entries.
SMILES	Ecoli rRNA inh	Ecoli rRNA inh OD600	Ecoli rRNA inh RFP
O=C(c1ccc(F)cc1)N1C[C@H]2[C@@H](c3ccccc31)[C@H](CO)N2Cc1ccc2c(c1)OCO2	-2	-10	2.3
CC(=O)N1CC(=O)N2[C@H](C1)[C@@H](c1ccc(C#Cc3cccnc3)cc1)[C@@H]2CO	1	4	1.7
C[C@@H]1CN([C@H](C)CO)C(=O)c2cc(-c3cccnc3)cnc2O[C@@H]1CN(C)C(=O)Nc1ccc(F)cc1	3	6	0.4
O=C(CN1CCOCC1)NCC[C@@H]1CC[C@@H](NC(=O)Nc2ccccc2)[C@H](CO)O1	7	11	-1.1
CCCCOCC1CN(CCCC)S(=O)(=O)c2c(Oc3ccc(SC)c(C)c3)cccc2O1 (stereo unspecified)	9	14	0.0
CC(C)NC(=O)N(C)C[C@@H]1Oc2ccc(N(C)C)cc2CC(=O)N([C@H](C)CO)C[C@@H]1C	-1	1	2.8
CC(=O)N[C@H]1C=C[C@H](CC(=O)NCC2CCCCC2)O[C@H]1CO	-2	-5	0.9
Cc1noc(C)c1NC(=O)N(C)C[C@H]1Oc2ccc(NC(=O)NC(C)C)cc2CC(=O)N([C@H](C)CO)C[C@@H]1C	5	6	-1.9
C[C@H](CO)N1C[C@H](C)[C@@H](CN(C)S(=O)(=O)c2ccccc2)Oc2ccc(NC(=O)CCN3CCOCC3)cc2CC1=O	-1	4	-1.7
C[C@@H]1CN([C@@H](C)CO)C(=O)c2cc(C#Cc3cccnc3)cnc2O[C@H]1CN(C)C(=O)CN(C)C	4	9	-0.5
C[C@H](CO)N1C[C@H](C)[C@H](CN(C)CC2CC2)Oc2c(NS(=O)(=O)c3cccs3)cccc2C1=O	4	10	-1.8
C[C@@H]1CN([C@@H](C)CO)C(=O)c2cc(-c3cccc(F)c3)cnc2O[C@@H]1CN(C)Cc1ccccc1	-2	-5	-2.1

As a working copy, part of the list above:
SMILES	Ecoli rRNA inh	Ecoli rRNA inh OD600	Ecoli rRNA inh RFP
C[C@@H]1CN([C@@H](C)CO)C(=O)c2cc(C#Cc3cccnc3)cnc2O[C@H]1CN(C)C(=O)CN(C)C	4	9	-0.5
C[C@H](CO)N1C[C@H](C)[C@H](CN(C)CC2CC2)Oc2c(NS(=O)(=O)c3cccs3)cccc2C1=O	4	10	-1.8
C[C@@H]1CN([C@@H](C)CO)C(=O)c2cc(-c3cccc(F)c3)cnc2O[C@@H]1CN(C)Cc1ccccc1	-2	-5	-2.1

More structures:
SMILES	Ecoli rRNA inh	Ecoli rRNA inh OD600	Ecoli rRNA inh RFP
COCc1cccc(-c2csc(C(O)c3cccc(OC)c3)n2)c1 (stereo unspecified)	2	-4	4.7
COc1ccccc1C#Cc1ccc([C@@H]2[C@@H](CO)N3CCCCN(C(=O)C4CCC4)C[C@@H]23)cc1	-19	-37	13
COc1cccc(NC(=S)NC(Cc2ccccc2)c2ccccc2)c1 (stereo unspecified)	-7	-36	18
C[C@H](CO)N1C[C@H](C)[C@H](CN(C)C(=O)Nc2ccc3c(c2)OCO3)Oc2ncc(C#CC(C)(C)O)cc2C1=O	6	8	-0.7
CO[C@H]1CN(C)C(=O)c2cc(NC(=O)c3cnccn3)ccc2OC[C@@H](C)N(C(C)=O)C[C@@H]1C	3	2	0.9
CCCNC(=O)C[C@H]1CC[C@@H]2[C@H](COC[C@H](O)CN2C(=O)Nc2c(C)noc2C)O1	3	16	-6.1
CN1C[C@@H]2[C@H](c3ccccc31)[C@H](CO)N2C(=O)C1CCCCC1	-3	-4	-2.7
C[C@H]1CN([C@@H](C)CO)C(=O)c2cccc(NS(=O)(=O)c3cccs3)c2O[C@@H]1CN(C)CC1CC1	-1	3	0.0
N#Cc1ccc(-c2ccc([C@H]3[C@@H](CO)N4CCCCN(C(=O)Nc5ccc(F)cc5)C[C@H]34)cc2)cc1	-60	-73	-11
CN1CCCCN2[C@H](C1)[C@@H](c1ccc(Br)cc1)[C@@H]2CO	4	-3	0.4
COc1ccc(CN(C)C[C@@H]2OCCCC[C@H](C)Oc3ccc(NC(=O)Nc4ccc(C(F)(F)F)cc4)cc3C(=O)N([C@H](C)CO)C[C@@H]2C)cc1	-4	-12	11
COCC(=O)N(C)C[C@@H]1Oc2cc(-c3ccc(OC)cc3)ccc2S(=O)(=O)N([C@H](C)CO)C[C@@H]1C	-3	4	-4.7
C/C=C/c1ccc2c(c1)O[C@@H](CN(C)CCC)[C@@H](C)CN([C@@H](C)CO)S2(=O)=O	11	7	0.9
COc1ccc(C(C)(O)c2nc(-c3cccc(O)c3)cs2)cc1 (stereo unspecified)	-15	-14	5.0
CC(C)NC(=O)Nc1cccc2c1O[C@@H](CN(C)Cc1ccc3c(c1)OCO3)[C@H](C)CN([C@H](C)CO)C2=O	-4	-10	-2.0
O=C(C[C@H]1CC[C@@H](NC(=O)c2ccccn2)[C@@H](CO)O1)NCc1cc(F)cc(F)c1	-1	0	1.4
CCC(=O)NC[C@@H]1[C@@H](c2ccccc2)[C@H](CO)N1C(=O)C1CC1	2	7	-3.5
C/C=C/c1cnc2c(c1)C(=O)N([C@H](C)CO)C[C@@H](C)[C@H](CN(C)Cc1cccc(C(=O)O)c1)O2	1	-7	0.7
O=c1[nH]c(=S)[nH]c2c1[C@H](CCc1cccc(Cl)c1)O[C@H](C1CCCC1)C2	-26	-26	-8.1
CCC(C(=O)NC(C)(C)C)n1c(-c2ccccc2)nc2ccccc21 (stereo unspecified)	4	3	-1.9
O=S(=O)(c1ccccc1F)N1CC[C@@H]2[C@@H](CO)Nc3ccc(-c4ccccc4)cc3[C@@H]21	-16	-55	27
O=C(c1ccccn1)N1CC[C@@H]2[C@H]1c1cc(-c3ccccc3F)ccc1N[C@@H]2CO	-4	-12	11
COc1ccccc1NC(=O)N1CC(=O)N2[C@H](CO)[C@H](c3ccc(C#CC(C)C)cc3)[C@H]2C1	-2	-11	0.9
C[C@H]1CCCCO[C@@H](CN(C)Cc2ccc(C(=O)O)cc2)[C@@H](C)CN([C@@H](C)CO)C(=O)c2cc(NS(=O)(=O)c3cccs3)ccc2O1	3	12	2.6
O=C(NC1CC1)c1ccc2sc([C@H]3C[C@H](O)[C@@H](CO)O3)nc2c1	1	6	2.0
O=C(CC1CC2CCC1C2)N1CCN(S(=O)(=O)c2ccc(C(F)(F)F)cc2)CC1 (stereo unspecified)	1	12	0.1
C[C@@H]1CN([C@@H](C)CO)C(=O)c2cccc(NC(=O)C3CCOCC3)c2O[C@@H]1CN(C)S(=O)(=O)c1ccccc1	1	0	-0.1

Some of the compounds tested; the hit share may differ from the screen's.
